Compound activity: PubChem BioAssay, several laboratories
eIF4H FP inh: inhibitors of RNA binding by human eIF4H; eIF4H fluorescence polarization binding assay; AID 2012; inhibition, % at 35 µM; actives 0.94% (n = 290,000); Q15056;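 active = 50% or more with normal probe brightness, or confirmed in later tests; inconclusive = above 50% with abnormal brightness, or retests that disagree; inactive = below 50% or failed in later tests; about a fifth of its hits are not listed in these tables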;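 note: calls also rest on retests at 20 µM and on dose response follow-up; 0% = protein and probe with vehicle and 100% = probe without protein; strong numbers were not always called active; many hits fall short of the cut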
MT1-MMP act inh: blocks activation of human MT1-MMP; actives 0.061% (n = 360,000); AID 651647; P50281; GFP/RFP ratio change, % at 20 µM; HT1080 RFP-PRO-GFP cells, GFP/RFP ratio fluorescence, overnight; percent of plate control window, DMSO zero;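 active = GFP/RFP ratio change of at least 30% with cell ATP level not reduced by more than half and red fluorescence within 50% of control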; note: strong numbers were not always called active
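Assay system: HT1080 RFP-PRO-GFP cells. Benchmarks: DMSO vehicle wells and RFP-L50D-GFP reporter cell wells. Times: overnight cell settling, then overnight compound exposure, 37 °C, 5% CO2. Compound: 20 µM single dose, 1% DMSO. Read-out basis: GFP/RFP fluorescence ratio.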
PABP FP inh: PABP-poly(A) binding inhibition; actives 1% (n = 290,000); inhibition, % at 35 µM; PABP-poly(A) RNA binding, fluorescence polarization;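 active = 50% or more with normal probe brightness, or confirmed in later tests; inconclusive = above 50% with abnormal brightness, or retests that disagree; inactive = below 50% or failed in later tests; about a fifth of its hits are not listed in these tables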;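 note: calls also rest on retests at 20 µM and on dose response follow-up; controls were probe without protein and protein plus probe with vehicle; some compounds called inactive have numbers as strong as hits; many hits fall short of the cut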
Target sequence (P11940 whole entry, looked up): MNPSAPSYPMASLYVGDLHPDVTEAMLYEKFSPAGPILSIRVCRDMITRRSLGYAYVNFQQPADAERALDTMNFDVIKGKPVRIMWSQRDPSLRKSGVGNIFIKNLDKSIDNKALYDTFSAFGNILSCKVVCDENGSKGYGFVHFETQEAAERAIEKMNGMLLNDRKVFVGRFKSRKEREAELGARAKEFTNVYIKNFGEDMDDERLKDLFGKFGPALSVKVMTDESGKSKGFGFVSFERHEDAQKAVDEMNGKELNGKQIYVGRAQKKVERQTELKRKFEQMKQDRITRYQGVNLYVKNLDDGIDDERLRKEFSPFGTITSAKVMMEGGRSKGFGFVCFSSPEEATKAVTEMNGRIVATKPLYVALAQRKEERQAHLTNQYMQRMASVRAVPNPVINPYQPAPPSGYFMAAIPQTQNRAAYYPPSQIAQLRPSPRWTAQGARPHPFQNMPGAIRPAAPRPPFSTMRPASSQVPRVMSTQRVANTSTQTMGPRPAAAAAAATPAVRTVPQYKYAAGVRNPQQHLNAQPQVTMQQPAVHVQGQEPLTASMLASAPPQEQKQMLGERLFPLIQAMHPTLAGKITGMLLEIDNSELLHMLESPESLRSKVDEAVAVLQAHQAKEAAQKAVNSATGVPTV
CSC inhib: blocks cancer stem cells. cancer stem cell-like cells viability, luminescence. inhibition, % at 7.5 µM. AID 2717. actives 1.1% (n = 300,000);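 active = mean at 75% or more and at least half the replicates too; inconclusive = mean and replicates disagree; tested in HMLE shEcad cells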;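 note: 0% = median of negative and 100% = median of positive control wells; the first replicate is given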
UUG fidelity: modulators of start codon recognition fidelity in yeast. AID 602363. activity score, % at 18.7 µM. S. cerevisiae UUG-firefly luciferase reporter, luminescence/redox ratio. actives 0.13% (n = 350,000);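 active = replicate mean at a twofold rise or more, about +100% in these data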;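 note: firefly luciferase made from a UUG start codon reports start codon fidelity; reporter light over untreated wells divided by growth signal over untreated wells; some hits fall short of that in this replicate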
HIV Env fusion: HIV envelope-mediated fusion inhibition; HeLa-JRFL Env/CEM21 cell fusion, luciferase; inhibition, % at 12.3 µM; actives 1.1% (n = 360,000); AID 651610;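 active = mean replicate inhibition score of at least 50 and every replicate individually at or above 50; inconclusive = only one of the two criteria met; inactive = mean below 50 and not all replicates reaching 50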;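 note: 0% = plate neutral controls and 100% = maraviroc near 300 nM; one replicate is shown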
Rce1 inhib: inhibitors of yeast Ras-converting enzyme; calls only; Q03530; yeast membranes, quenched prenylated peptide cleavage fluorescence; actives 0.27% (n = 290,000); AID 2563;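 active = fall in fluorescence gain of 50% or more versus controls, with final raw signal at or below 3038400; inconclusive = same 50% fall but final raw signal above 3038400; inactive = fall in fluorescence gain under 50%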;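 note: plate controls were neutral control wells for no effect and wells lacking membranes for full effect; tested at 10 µM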
Target sequence (Q03530 whole entry, looked up): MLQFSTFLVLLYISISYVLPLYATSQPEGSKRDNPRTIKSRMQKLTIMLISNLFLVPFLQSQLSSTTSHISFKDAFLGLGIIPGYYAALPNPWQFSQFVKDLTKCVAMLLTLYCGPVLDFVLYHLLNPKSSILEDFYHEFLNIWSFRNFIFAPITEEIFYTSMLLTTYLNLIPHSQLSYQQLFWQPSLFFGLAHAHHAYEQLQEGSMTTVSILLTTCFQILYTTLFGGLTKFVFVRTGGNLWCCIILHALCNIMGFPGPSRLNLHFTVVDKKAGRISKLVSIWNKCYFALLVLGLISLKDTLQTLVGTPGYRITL
MT1-MMP act inh RFP: also measured in MT1-MMP act inh; calls as there; RFP signal change, %; measured here: RFP expression control read;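 0 = vehicle wells; hits needed this value within 50% of zero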
* marks the source's active call; other numbers are inactive results; i = inactive; ? = inconclusive; nt = no result given.

Every second line gives: eIF4H FP inh	MT1-MMP act inh RFP	Rce1 inhib	MT1-MMP act inh	PABP FP inh	UUG fidelity	HIV Env fusion	CSC inhib
COc1cccc(NC(=O)CC2C(=O)NCCN2C(=S)Nc2ccc(F)cc2)c1 (centres undefined)
 : -13.2	5.6	i	4.2	-3.9	-22.7	12.8	-1.1
CCC(CC)c1nnc(NC(=O)c2ccc(N3CCCCC3)c([N+](=O)[O-])c2)s1
 : 0.6	-5.0	i	1.2	3.4	nt	5.4	2.1
CCOc1ccccc1-c1nc(SCC(=O)O)n[nH]1
 : 7.5	4.1	i	-2.2	-0.8	-8.6	nt	-6.3
Cc1c(OCC(=O)N(C)C)ccc2c3c(c(=O)oc12)CCCCC3
 : 0.8	-0.5	i	0.4	0.2	-12.6	-3.0	-2.0
O=C1NC(=O)[C@@H]2C3c4ccccc4C=CN3[C@H](C(=O)c3cccs3)[C@H]12 (some centres undefined)
 : 125.6*	nt	i	nt	126.3*	nt	nt	-4.6
COc1ccc(CCNC(=O)CCOc2ccc(C)cc2)cc1OC
 : 1.0	4.8	i	4.4	-15.1	-7.3	-4.3	3.8
Cn1ccnc1C(O)(c1ccccc1)c1nccn1C
 : -2.1	-0.9	i	0.1	6.7	-6.4	2.8	-4.7
Cc1ccc(CNC(=O)c2nnc(CS(=O)(=O)c3ccccc3)o2)cc1
 : -9.8	2.3	i	-1.6	-12.1	-3.0	-25.1	-7.4
CC(C)CCOCC(=O)Oc1ccccc1C(=O)O
 : -1.5	3.5	i	-3.7	11.5	-15.0	nt	-14.3
CCN1CCN(S(=O)(=O)c2ccc(C(=O)Nc3ccccc3)cc2)CC1
 : -5.7	1.4	i	0.2	-14.0	-11.6	1.3	-9.6
C[C@@H](NC(=O)c1ncn2c1c(=O)[nH]c1cccnc12)c1ccccc1
 : nt	1.0	nt	2.0	nt	1.0	-11.9	nt
C/C(=N\Nc1ccc(C#N)cc1[N+](=O)[O-])c1ccc(C)o1
 : -4.7	1.0	i	9.0	-5.2	-8.8	i	-1.6
O=C(C1=C(O)C(=O)N(CCN2CCOCC2)C1c1ccc(Br)cc1)c1cc2ccccc2o1 (centres undefined)
 : -4.3	2.3	i	-4.6	13.5	-13.0	13.4	-3.2
O=c1cc(O)c(-c2cccc(Cl)c2)c(Cl)[nH]1
 : 2.3	-0.7	i	0.6	-3.6	-12.7	-58.3	-11.5
COC(=O)c1c(C#N)c(N)nc2c1CCCC2
 : -15.5	-0.3	i	-2.3	-5.3	-19.6	nt	-6.3
CNC(=S)Nc1cc(C(F)(F)F)ccc1Cl
 : -7.6	3.6	i	2.8	6.5	nt	8.9	13.1
Cn1c(=NC(=O)CSCC(=O)N2CCOCC2)sc2ccccc21
 : -7.2	2.0	i	0.2	2.0	-13.0	nt	-6.5
NNc1nc(-c2ccccc2)cc(-c2ccccc2)n1
 : 6.1	3.9	i	3.0	-8.2	nt	23.3	80.1*
CCOc1ccc(Nc2nnc(Cc3ccc(OC)cc3)c(=O)[nH]2)cc1
 : -8.1	2.1	i	2.0	22.5	nt	5.3	2.3
COc1cccc(NC(=O)C2CC(=O)N(Cc3ccco3)C2)c1 (centres undefined)
 : nt	4.8	nt	-2.4	nt	11.6	-4.7	-9.6

The final 4 compounds of the section before lead into the next.
Every second line gives: eIF4H FP inh	MT1-MMP act inh RFP	Rce1 inhib	MT1-MMP act inh	PABP FP inh	UUG fidelity	HIV Env fusion	CSC inhib
Cn1c(=NC(=O)CSCC(=O)N2CCOCC2)sc2ccccc21
 : -7.2	2.0	i	0.2	2.0	-13.0	nt	-6.5
NNc1nc(-c2ccccc2)cc(-c2ccccc2)n1
 : 6.1	3.9	i	3.0	-8.2	nt	23.3	80.1*
CCOc1ccc(Nc2nnc(Cc3ccc(OC)cc3)c(=O)[nH]2)cc1
 : -8.1	2.1	i	2.0	22.5	nt	5.3	2.3
COc1cccc(NC(=O)C2CC(=O)N(Cc3ccco3)C2)c1 (centres undefined)
 : nt	4.8	nt	-2.4	nt	11.6	-4.7	-9.6
COc1ccc(Cl)cc1NC(=O)CCN1CCOCC1
 : -3.3	1.5	i	-0.4	-15.9	nt	5.8	-9.6
Cc1cc(C)c(NC(=O)Cn2c(=O)c3cccn3c3ccccc32)c(C)c1
 : 2.1	5.2	i	2.3	2.8	-5.3	-0.9	-3.8
COc1ccccc1OCCSc1nnc(CNC(=O)c2ccco2)n1C
 : 2.6	2.6	i	3.9	41.5	-5.9	2.5	29.1
CCCCN(C(=O)c1cccc(-n2cccc2)c1)c1c(N)n(Cc2ccccc2)c(=O)[nH]c1=O
 : nt	-3.0	i	0.2	nt	-20.3	6.4	-20.1
CC1(C)CC(=O)CC(=O)/C1=N\Nc1c(Cl)cc(Cl)cc1Cl
 : 3.2	1.5	i	-6.9	7.6	nt	5.3	-13.7
CC(C)CN(CC(C)C)C(=O)COc1ccccc1C(N)=O
 : 6.7	0.9	i	2.1	1.7	nt	15.4	-2.9
Cc1ccc(C)c(N(C(=O)Cn2nnc3ccccc32)C(C(=O)NC(C)(C)C)c2ccsc2)c1 (centres undefined)
 : -5.9	5.3	i	0.0	1.8	-14.0	24.1	-30.1
CCCCC(=O)NC(=S)Nc1c(C)cc(Br)cc1C
 : 3.3	3.3	i	-1.8	-4.5	-21.5	18.8	-15.0
COc1ccccc1-c1cc(C(F)(F)F)nc(S(C)(=O)=O)n1
 : 0.6	-6.3	i	-7.7	-9.5	-14.1	37.2	85.4*
CCCCSc1nc(N)nc2c1ncn2C1OC(CO)C(O)C1O (centres undefined)
 : nt	2.0	nt	-3.4	nt	-19.9	30.8	nt
O=C(Cn1cccc1)N1CCc2ccccc21
 : 2.3	4.9	i	-2.9	-5.0	-9.6	-1.7	-6.6
c1ccc(C[C@H]2CNCCN2CCCCC2CCCCC2)cc1
 : nt	2.0	i	-5.4	nt	-17.3	7.2	?
Cc1oc(-c2cccs2)nc1CN1CCN(C(C)C)C(CCO)C1 (centres undefined)
 : -2.8	4.3	i	2.7	5.4	nt	0.5	-4.3
CCC(C)(C)NC(=O)CN(Cc1cccs1)C(=O)CNS(=O)(=O)c1ccc(C)cc1
 : -4.8	2.8	i	4.2	5.0	-12.5	9.9	3.5
CCCNC(=O)Nc1cc(S(=O)(=O)CC)ccc1O
 : 16.3	-0.1	i	-0.2	1.7	-13.2	1.2	-13.0
c1ccc2cc(-c3cc4ccccn4c3)ccc2c1
 : 2.4	6.0	i	-3.4	14.6	-21.7	nt	33.0
CCCCn1c(N)c(N(CCOC)C(=O)COC(=O)COc2ccc(CC)cc2)c(=O)[nH]c1=O
 : nt	2.4	i	4.7	nt	nt	-29.7	-9.9
O=C(COC(=O)c1nc(Cl)ccc1Cl)NCc1cccs1
 : nt	0.7	i	-1.1	nt	nt	-4.5	-0.1
CCOC(=O)C1CCN(Cc2cnc(Oc3ccc(OC)cc3)s2)CC1
 : 0.8	-5.1	i	-14.1	-4.9	-17.0	1.3	-7.6
Cc1cc(CNC(=O)CC2C(=O)NCCN2Cc2ccccc2C(F)(F)F)nn1C (centres undefined)
 : 38.0	5.4	i	2.0	21.9	-14.8	7.3	nt
O=C(CNC(=O)c1ccco1)Nc1ccc(Br)cc1
 : -12.1	-0.5	i	-2.7	-4.3	-8.3	-27.3	6.4
CC1(C)CC2CC(C)(CN2C(=O)c2ccc([N+](=O)[O-])cc2[N+](=O)[O-])C1 (centres undefined)
 : -10.6	-0.1	i	2.1	19.4	nt	4.7	-6.3
O=C(COC(=O)CNC(=O)c1ccc(Cl)c([N+](=O)[O-])c1)NNC(=O)c1cccs1
 : nt	4.3	i	1.1	nt	2.9	nt	-5.5
Cc1cc(C)c(S(C)(=O)=O)c(N(C)NC(=O)c2c(F)cccc2F)n1
 : 2.5	-0.2	i	-3.1	3.3	-15.9	6.4	6.2
CNC(CC(C)C)C(=O)NC1C(=O)NC(CC(N)=O)C(=O)NC2C(=O)NC3C(=O)NC(C(=O)NC(C(=O)O)c4cc(O)cc(O)c4-c4cc3ccc4O)C(O)c3ccc(c(Cl)c3)Oc3cc2cc(c3OC2OC(CO)C(O)C(O)C2OC2CC(C)(N)C(O)C(C)O2)Oc2ccc(cc2Cl)C1O (centres undefined)
 : nt	2.8	i	0.0	nt	13.1	33.5	-4.8
c1ccc(N2CCN(c3nc(-c4ccccn4)nc4ccccc34)CC2)cc1
 : 13.9	-9.4	i	2.9	5.6	-31.4	nt	-3.9
CS(=O)(=O)N(CC(=O)Nc1ccc2c(c1)OCCO2)Cc1ccccc1
 : -9.8	-1.9	i	-1.3	-6.5	nt	nt	-13.3
O=C1c2ccccc2C(=O)N1Cc1nc2ccccc2c(=O)n1CCCN1CCOCC1
 : -1.9	4.0	i	4.0	-3.0	3.4	-5.6	-9.6
CCOC(=O)C1CCN(c2c(N3CCCC(C(=O)OCC)C3)c(=O)c2=O)CC1 (centres undefined)
 : -7.7	3.2	i	-1.8	-0.1	-42.6	44.5	-20.0
CCC1(C)Cc2c(sc3[nH]c(=O)[nH]c(=O)c23)CS1 (centres undefined)
 : 66.5*	6.5	i	-1.1	65.6*	-20.0	nt	-5.0
COc1cc(/C=N/OCC(=O)NC2CCCCC2C)ccc1OCc1ccc(Cl)cc1 (centres undefined)
 : 2.9	-29.7	i	-10.4	-4.5	-11.4	3.5	13.8
CC(CCc1ccccc1)NCC#N (centres undefined)
 : -6.0	0.8	i	0.3	5.4	nt	-3.0	-9.4
Cc1cc2c(c(=O)o1)C(CC(C)C)C(C#N)=C(N)O2 (centres undefined)
 : 3.9	-3.0	i	-4.8	27.9	-5.6	nt	-2.7
Nc1c(N(CCO)C(=O)C2CCCCC2)c(=O)[nH]c(=O)n1Cc1ccccc1
 : 12.7	4.1	i	-6.7	8.1	-9.9	4.7	-21.2
Cc1cc(C)cc(-n2c(O)c(C=NC3CCS(=O)(=O)C3)c3ccccc3c2=O)c1 (centres undefined)
 : -8.3	nt	i	nt	-12.0	-25.2	4.0	-4.6
CCCc1cc(=O)[nH]c(SCC(=O)N2CCCC2=O)n1
 : nt	-4.1	i	-5.1	nt	7.4	nt	-16.7
CC(=N)C1=C(O)CC(c2ccccc2)CC1=O (centres undefined)
 : -9.3	3.8	i	1.2	-5.8	-11.3	-4.4	-2.1
COc1ccc(CNC(=O)CCS(=O)(=O)c2ccc3c(c2)CCN3C(C)=O)cc1
 : -10.0	5.5	i	7.2	1.5	-6.0	12.8	-14.1
O=C(NCCOC(=O)c1ccccc1)c1ccc([N+](=O)[O-])cc1
 : -0.5	0.9	i	-4.5	-3.0	-6.5	10.0	-7.7
CCCCN(Cc1cc2ccccc2[nH]c1=O)C(=O)c1ccccn1
 : 0.8	3.0	i	2.8	10.4	nt	nt	3.8
Cc1ccc(S(=O)(=O)N2CCOC2CNC(=O)C(=O)NCCCc2ccccc2)cc1 (centres undefined)
 : 2.5	-16.7	i	1.4	-1.0	-35.4	30.7	-2.6
Cc1cc(C)cc(OCC(=O)OCC(=O)c2c(N)n(C)c(=O)n(C)c2=O)c1
 : -4.4	5.6	i	1.4	-3.2	-27.6	nt	1.6
CC(C)(C)NC(=O)C1CC(=O)OC12CCCCC2 (centres undefined)
 : 3.9	4.3	i	4.4	7.9	-20.6	nt	nt

A portion of the library (hit frequency here may not be typical).
